MARV entry inh = inhibitors of Marburg virus binding or cell entry. Potency, µM (highest dose often 37.8 µM), inactives show top-dose activity change, negative = inhibition, actives largely listed as inhibitors. hit rate 1.8% among 300,000. Marburg virus pseudotyped entry inhibition, cell reporter; control for the full effect not named in the record; about a third of the inactives were read at about 46 µM; active = well fitted inhibition curve with a large enough effect; inconclusive = small, poorly fitted or top-dose-only effect, or effect the other way; inactive = flat fitted curve, though single readings scatter; tested in HEK293 cells; about a fifth of its hits are not listed in these tables; also: % is scaled to controls: 0 for no effect and ±100 for the full control effect; luciferase read-out
NS1 function inh = influenza NS1 inhibition; Potency, µM (highest dose often 46.1 µM), inactives show top-dose activity, positive = more growth; AID 2326; S. cerevisiae slowed by influenza A NS1, growth recovery by OD600; hit rate 0.4% among 270,000; also: actives are rising curves; nearly all actives have a fitted effect of over 50% in size
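In this qHTS, NS1 from influenza A is expressed in budding yeast, where it slows growth. Cells are switched from glucose to 2% galactose medium (pH 6.0, -URA), treated with compound, and growth recovery is read at OD600.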
Cruzain Triton = inhibitors of Trypanosoma cruzi cruzain with detergent | P25779 | purified cruzain, Z-FR-AMC fluorescence, 0.01% Triton | Potency, µM, for inactives: max response, negative = inhibition, usual class: inhibitors | hit rate 0.43% among 200,000; active = well fitted curve in the direction sought with a large enough effect; inconclusive = small, poorly fitted or top-dose-only effect, or another doubt; inactive = no such curve, though single readings can be large; an effect the other way counts as inactive or inconclusive;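 also: plate controls were neutral wells for no effect and buffer without enzyme for full effect; nearly all actives have a fitted effect of over 40% in size; top concentration of the series not given in the record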
Target sequence (P25779 123-467 limits assumed): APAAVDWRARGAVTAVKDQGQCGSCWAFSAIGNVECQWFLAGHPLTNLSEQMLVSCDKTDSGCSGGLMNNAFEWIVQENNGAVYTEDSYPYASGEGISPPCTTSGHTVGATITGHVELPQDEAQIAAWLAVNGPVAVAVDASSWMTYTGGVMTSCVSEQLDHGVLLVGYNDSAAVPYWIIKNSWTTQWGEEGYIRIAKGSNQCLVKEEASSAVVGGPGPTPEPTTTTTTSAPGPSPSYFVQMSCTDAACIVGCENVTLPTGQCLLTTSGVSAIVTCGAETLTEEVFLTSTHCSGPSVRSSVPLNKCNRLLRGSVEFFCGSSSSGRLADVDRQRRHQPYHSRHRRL
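Purified cruzain (1.5 nM final) was preincubated with compounds for 15 min at room temperature in 100 mM sodium acetate pH 5.5, 5 mM DTT, 0.01% Triton X-100. Reaction started with 2 uM Z-FR-AMC; AMC fluorescence change over 60 s gave activity.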
RE007 growth inh = less growth of the S. pombe RE007 Vpr strain | hit rate 0.21% among 360,000 | S. pombe RE007 Vpr strain, BacTiter-Glo ATP luminescence, 24 h; control for the full effect not named in the record | Potency, µM (series often up to 92.2 µM), without a hit: at the highest dose activity change, negative = less growth; active = well fitted falling curve with a large enough effect; inconclusive = small, poorly fitted or top-dose-only effect; inactive = no such curve, though single readings can be large or run the other way;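 also: % is scaled to controls: 0 for no effect and ±100 for the full control effect; nearly all actives have a fitted effect of over 50% in size; the assay follows cell death caused by Vpr and the record does not say whether a fall means rescue or toxicity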
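Fission yeast strain RE007, carrying one chromosomally integrated HIV-1 vpr copy, was seeded at OD 0.01 in PMG+AL medium with 23 nL pinned compound. After 24 h at 30 °C and 99% humidity, viability was read by BacTiter-Glo luminescence.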
LASV entry inh = inhibitors of Lassa virus binding or cell entry | hit rate 1.2% among 300,000 | Lassa virus pseudotype entry inhibition, cell reporter; control for the full effect not named in the record | AID 540256 | Potency, µM (highest dose often 37.9 µM), without a hit: top-dose activity change, negative = inhibition, most hits filed as inhibitors; active means well fitted inhibition curve with a large enough effect; inconclusive means small, poorly fitted or top-dose-only effect, or effect the other way; inactive means flat fitted curve, though single readings scatter; tested in HEK293 cells; also: % is scaled to controls: 0 for no effect and ±100 for the full control effect; nearly all actives have a fitted effect of over 50% in size; luciferase read-out
Cruzain noTriton = blocks cruzain activity in detergent-free assay. P25779. purified cruzain, Z-FR-AMC fluorescence, no detergent. Potency, µM, for the others: max response, negative = inhibition, most hits filed as inhibitors. hit rate 2.3% among 200,000. AID 1476; active = well fitted curve in the direction sought with a large enough effect; inconclusive = small, poorly fitted or top-dose-only effect, or another doubt; inactive = no such curve, though single readings can be large; an effect the other way counts as inactive or inconclusive;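 also: plate controls were enzyme without inhibitor for no effect and buffer without enzyme for full effect; nearly all actives have a fitted effect of over 40% in size; top concentration of the series not given in the record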
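Purified cruzain at 1.5 nM, pre-incubated 15 min with compound at room temperature in 100 mM sodium acetate pH 5.5, 5 mM DTT, 0.00005% Triton X-100. Reaction started with 2 uM Z-FR-AMC; AMC fluorescence increase over 60 s gives rate.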
2A StopGo = FMDV 2A StopGo reporter, luciferase signal. human cells with a luciferase reporter of 2A StopGo recoding; control for the full effect not named in the record. Potency, µM (highest dose often 57.9 µM), inactives show at the highest dose signal change, negative = less light. hit rate 1.2% among 410,000; active = well fitted falling curve with a large enough effect; inconclusive = small, poorly fitted or top-dose-only effect; inactive = no such curve, though single readings can be large or run the other way; tested in HEK293T cells; also: % is scaled to controls: 0 for no effect and ±100 for the full control effect; nearly all actives have a fitted effect of over 45% in size; luciferase light after 4 h
SARS PLP yeast = SARS-CoV PLP inhibition in yeast | S. cerevisiae expressing SARS-CoV PLpro, growth rescue; control for the full effect not named in the record | Potency, µM (series often up to 32.9 µM), without a hit: at the highest dose activity, positive = growth rescue | hit rate 0.19% among 330,000; also: 0% is about no effect; nearly all actives have a fitted effect of over 55% in size; growth read by luminescence after 48 h
* hit, by the source's call; ? = inconclusive; . = not tested or not shown; & = joins results of further samples; [ ] = dose if it differs, or a comment. Unless noted, calls follow the shape of the dose curve; as a rule, active means well fitted rising curve with a large enough effect; inconclusive means small, poorly fitted or top-dose-only effect; inactive means no such curve, though single readings can be large or run the other way. Potency is read from the fitted curve at half-maximal effect.

SMILES	MARV entry inh	NS1 function inh	Cruzain Triton	RE007 growth inh	LASV entry inh	Cruzain noTriton	2A StopGo	SARS PLP yeast
Cc1cccc(C(=O)NC2CCN(C(=O)NCc3ccccc3)CC2)c1	-22.1%[46.1 µM]	6.9%	.	-1.6%	?	.	-1.5%	0.8%
COC(=O)C1=NN(c2ccc(C)cc2)C2C(=O)N(c3ccccc3OC)C(=O)C12 (stereo not drawn)	14.7%	-91.1%	.	2.5%	5.9%	.	3.2%	2.9%
C=C(C)COc1ccc(-c2nc(N)ncc2-c2ccc(OC)cc2)c(O)c1	-3.2%	-47.8%	-13.8%	.	.	?	.	-4.4%
COc1ccc(C2NC(c3ccc(OC)cc3)C(C)C(=O)C2C)cc1 (stereo not drawn)	?	-6.0%	.	-0.5%	?	.	-18.5%	-1.1%
O=C(Nc1ccccc1)N1CCN(c2ccccn2)CC1	7.5%	-10.8%	2.7%	3.8%	3.5%	-12.4%	11.7%	0.3%
O=[N+]([O-])c1ccccc1/C=C/CN1CCSCC1	.	14.6%	.	3.1%	.	.	-1.0%	3.3%
O=C(CCc1ccccn1)NC1CCCc2c1cnn2-c1ccc(F)cc1F (stereo not drawn)	.	4.7%	.	-0.7%	.	.	-24.1%	0.0%
CC(=O)Oc1ccc(-c2cccc(C(=O)N3CCCCC3)c2)cc1	?	-31.0%	.	25.1%	-9.8%[46.1 µM]	.	18.0%	0.4%
COc1ccc2c(CNCCc3cccs3)c(C(=O)O)n(Cc3cccc(F)c3)c2c1	.	.	-3.5%	.	-0.6%[46.1 µM]	4.3%	0.6%	.
Nc1nc(CSC(=S)N2CCN(c3ccccc3)CC2)nc(Nc2ccc(F)cc2)n1	?	18.8%	-0.2%	7.6%	?	?	?	-20.7%
CCC(=O)C1=C(c2ccc(C)cc2)N(C(=O)CC)n2c(nnc2C2CCCCC2)S1	.	.	1.4%	.	?	-2.3%	-14.7%	.
COc1ccc(Br)cc1CN(C)CC(=O)Nc1c(Cl)cccc1Cl	-5.2%	13.2%	-2.9%	-26.7%	-15.1%	9.0%	-5.0%	?

2 neighbouring compounds from above, quoted:
SMILES	MARV entry inh	NS1 function inh	Cruzain Triton	RE007 growth inh	LASV entry inh	Cruzain noTriton	2A StopGo	SARS PLP yeast
Cc1cccc(C(=O)NC2CCN(C(=O)NCc3ccccc3)CC2)c1	-22.1%[46.1 µM]	6.9%	.	-1.6%	?	.	-1.5%	0.8%
COC(=O)C1=NN(c2ccc(C)cc2)C2C(=O)N(c3ccccc3OC)C(=O)C12 (stereo not drawn)	14.7%	-91.1%	.	2.5%	5.9%	.	3.2%	2.9%

Later entries
SMILES	MARV entry inh	NS1 function inh	Cruzain Triton	RE007 growth inh	LASV entry inh	Cruzain noTriton	2A StopGo	SARS PLP yeast
O=C1N=C(N2CCCC2)S/C1=C\C=C\c1ccccc1	.	-0.5%	.	3.8%	.	.	-13.5%	-0.1%
C[n+]1cccc(C2C(C#N)=C(N)Oc3c2ccc2ccccc32)c1 (stereo not drawn)	?	6.2%	.	-13.4%	?	.	18.7%	3.6%
O=C(CNC(=O)c1ccccc1F)NCc1cccnc1	17.5%[46.1 µM]	-45.9%	.	-0.2%	-5.0%	.	?	-0.3%
Cc1ccc2c(c1)C(c1ccccc1)N(C(=O)c1ccccc1)CC(=O)N2 (stereo not drawn)	-2.2%[46.1 µM]	-2.4%	.	-10.6%	22.3%[46.1 µM]	.	-3.2%	0.0%
CC(=N\NC(=O)c1cc(Br)ccc1O)/C(=N/O)C(=O)Nc1ccccc1	.	-26.4%	.	-2.6%	.	.	-26.0%	-5.5%
CN(C)c1ccc(NC(=O)CSc2nnc(-c3cnccn3)n2C)cc1	.	9.9%	.	-7.2%	.	.	-7.0%	3.6%
COC(=O)c1ccc(NC(=O)CCc2c(C)nn(-c3ccc(N4CCCCC4)nn3)c2C)cc1	.	.	-6.1%	.	27.4%[46.1 µM]	18.9%	31.3%[activator]	.
Cn1c(Cn2nnc(-c3ccccc3)n2)nnc1SCc1ccccc1Cl	-16.2%	-30.3%	-0.7%	16.6%	-0.7%	4.1%	0.0%	-13.5%
S=C(NCCCN1CCOCC1)Nc1ccc(Nc2ccccc2)cc1	?	4.3%	.	21.9%	?	.	-9.0%	1.2%
Cn1c(SCc2ccc3c(c2)OCO3)nnc1-c1ccccc1	10.7%&10.7%[46.1 µM]	4.0%	6.4%	2.0%	24.7%	-3.4%	27.8%	-1.4%
COc1cccc(NC(=O)CSCn2nnc3c(=O)[nH]c(Cc4ccc(F)cc4)nc32)c1	?	.	-3.1%	.	26.4%[46.1 µM]	-3.3%	-5.9%	.
CC1(C)C=C(c2ccc(O)cc2)CC(C)(C)N1	4.6%	4.3%	2.4%	-3.8%	1.9%	-5.9%	.	?
CC(C)Cn1cc(Cl)c(=O)n(CC(C)C)c1=O	?	-2.1%	.	-2.2%	9.9%[46.1 µM]	.	4.6%	0.2%
COC(=O)c1cccc(C(=O)N2CCC(CO)(CCc3ccccc3)CC2)c1	.	21.9%	.	3.2%	.	.	19.0%	-10.3%
N#Cc1ccc(NC(=O)CN2CCN(C(=O)c3cccs3)CC2)cc1Cl	-25.7%	.	.	-5.6%	1.1%	.	-25.7%	4.9%
Cc1ccc(S(=O)(=O)N2CCN(Cc3ccc4c(c3)OCO4)CC2)cc1	.	.	-1.0%	.	?	-1.4%	-16.5%	.
O=C(Nc1cccc2ccccc12)NC1Cc2ccccc2C1	?	0.9%	.	8.4%	4.6%	.	26.4%	-0.2%
CC(=O)Nc1nnc(CSCc2ccc(F)cc2)s1	.	-3.1%	.	19.9%	.	.	-4.1%	-0.1%
CCCCCCn1c(O)c(/C=C2\C=NN=C2c2ccccc2)sc1=S	6.4%	9.7%	2.3%	-6.0%	-4.2%	15.8µM*	-28.3%	7.9%
O=C(CC1C(=O)NCCN1CC1CCCCC1)NCc1ccc(F)cc1F (stereo not drawn)	4.1%[46.1 µM]	-0.5%	.	4.0%	0.6%	.	-11.5%	0.7%
O=C(O)c1cccc(C(=O)c2cccc(C(=O)O)c2)c1	12.9%[46.1 µM]	10.2%	.	-1.0%	5.9%[46.1 µM]	.	2.1%	0.4%
COc1cc(C(=O)Oc2cccc(/C=N/NC(=O)c3cc(C)[nH]n3)c2)cc(OC)c1OC	?	-5.4%	.	10.0%	?	.	-1.5%	-4.2%
CCC(C(=O)N1CCN(c2ccccc2OC)CC1)c1ccccc1 (stereo not drawn)	-7.8%	-12.7%	-0.8%	-1.3%	?	?	?	7.3%
COc1ccc(N(CC(=O)N/N=C/c2cc3ccc(OC)cc3nc2Cl)S(=O)(=O)c2ccccc2)cc1	-21.9%	10.3%	2.4%	.	3.1%	-10.9%	.	-14.4%
Cc1ccc(C)n1-c1ccc(N(C)C)cc1	-21.2%	.	.	-17.0%	-22.0%	.	-12.9%	-3.4%
O=C(N/C(=C\c1ccco1)C(=O)N1CCCC1CO)c1ccccc1 (stereo not drawn)	23.9%[46.1 µM]	5.8%	.	-5.4%	?	.	5.1%	0.3%
Cc1nc2sc3c(c2c(=N)n1N)CCCC3	-13.1%	-5.7%	.	-14.7%	-17.1%	.	-8.5%	0.0%
CCc1ccccc1NC(=S)N1CCC(NC(=O)c2ccc(OC)cc2)CC1	-12.8%[46.1 µM]	-0.9%	.	4.9%	-2.7%[46.1 µM]	.	3.3%	-0.4%
O=C1c2ccccc2C(=O)N1c1n[nH]c(CCc2ccccc2)n1	5.4%	-9.1%	2.0%	13.8%	-7.5%	18.4%	.	-1.1%
Cc1cccc2c1CC(C)(C)N=C2C1=C(O)CC(C)(C)CC1=O	?	3.4%	-0.9%	8.8%	19.6%	-1.5%	-18.0%	-3.1%
Cc1nccn1CCC(=O)Nc1ccc(Cl)cc1	4.0%[46.1 µM]	.	.	4.9%	23.5%[46.1 µM]	.	-9.2%	-0.2%
CCOc1ccc(S(=O)(=O)NCc2cccn2Cc2cccc(C)c2)cc1	.	.	-8.1%	.	-0.2%[46.1 µM]	-0.9%	21.0%	.
CCCc1[nH]c(=O)c(C#N)c2c1CCCC2	11.2%	13.4%	3.7%	8.8%	16.4%	0.6%	-27.9%	-0.1%
CN1CCN(C(=O)C2CCN(S(=O)(=O)c3cnc[nH]3)CC2)CC1	-12.5%[46.1 µM]	6.8%	2.8%	-2.2%	-1.5%	1.1%	-20.1%	5.0%
C/C(=C\C(=O)Nc1cscc1C)C(=O)O	3.3%[46.1 µM]	1.2%	.	2.6%	1.1%	.	-10.5%	0.4%
CCc1ccc(Nc2ncnc3c2cnn3-c2cc(Cl)ccc2C)cc1	.	.	1.7%	.	-24.9%[46.1 µM]	-9.4%	-5.1%	.
CCN1CCN(c2ccc(S(=O)(=O)N3CCCCC3)cc2NC(=O)/C=C/c2cccc(OC)c2OC)CC1	?	-8.4%	.	3.0%	?	.	-19.5%	0.1%
COc1ccc2c3c(c(=O)oc2c1OCC(=O)C(C)(C)C)CCCC3	-28.6%	-2.7%	-7.8%	15.5%	-1.4%	-7.3%	12.3%	6.7%
Cn1c(SCc2ccccc2Cl)nc(C(F)(F)F)cc1=O	-11.9%	-2.6%	-2.9%	-9.3%	5.3%	-9.2%	-3.9%	-0.9%
C=C(C)C(=O)O[C@H]1C/C(C)=C\C(=O)/C=C(\C)[C@H](O)[C@@H]2OC(=O)C(=C)[C@@H]21	.	-2.9%	.	-15.8%	.	.	?	-0.7%
Cc1cccn2c(=O)c(C(=O)NCCc3ccc(Cl)cc3)cnc12	.	.	1.7%	.	?	-5.9%	0.0%	.
Cc1ccc(CCNC(=O)C2CCCN(S(=O)(=O)c3cnc[nH]3)C2)cc1 (stereo not drawn)	.	8.3%	1.8%	-8.0%	.	6.7%	-3.1%	-3.4%

Copied from the list.
Under MARV entry inh, Cn1c(SCc2ccccc2Cl)nc(C(F)(F)F)cc1=O shows -11.9%
Under NS1 function inh, C=C(C)C(=O)O[C@H]1C/C(C)=C\C(=O)/C=C(\C)[C@H](O)[C@@H]2OC(=O)C(=C)[C@@H]21 shows -2.9%
